From PubChem
CSC inhib: blocks cancer stem cells. 1.1% of 300,000 active. AID 2717. cancer stem cell-like cells viability, luminescence. inhibition, % at 7.5 µM;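 active = mean at 75% or more and at least half the replicates too; inconclusive = mean and replicates disagree; tested in HMLE shEcad cells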;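 also: 0% = median of negative and 100% = median of positive control wells; the first replicate is given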
Env fusion inh: inhibitors of HIV Env-mediated cell fusion; AID 651610; HeLa-JRFL Env/CEM21 cell fusion, luciferase; inhibition, % at 12.3 µM; 1.1% of 360,000 active;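 active = mean replicate inhibition score of at least 50 and every replicate individually at or above 50; inconclusive = only one of the two criteria met; inactive = mean below 50 and not all replicates reaching 50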;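 also: 0% = plate neutral controls and 100% = maraviroc near 300 nM; one replicate is shown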
Yeast UUG start: alters start codon recognition fidelity in yeast | activity score, % at 18.7 µM | 0.13% of 350,000 active | S. cerevisiae UUG-firefly luciferase reporter, luminescence/redox ratio;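 active = replicate mean at a twofold rise or more, about +100% in these data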;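 also: firefly luciferase made from a UUG start codon reports start codon fidelity; reporter light over untreated wells divided by growth signal over untreated wells; some hits fall short of that in this replicate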
PABP FP inh: PABP-poly(A) binding inhibition | P11940 | PABP-poly(A) RNA binding, fluorescence polarization | inhibition, % at 35 µM | 1% of 290,000 active;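 active = 50% or more with normal probe brightness, or confirmed in later tests; inconclusive = above 50% with abnormal brightness, or retests that disagree; inactive = below 50% or failed in later tests; about a fifth of its hits are not listed in these tables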;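 also: calls also rest on retests at 20 µM and on dose response follow-up; controls were probe without protein and protein plus probe with vehicle; some compounds called inactive have numbers as strong as hits; many hits fall short of the cut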
eIF4H FP inh: inhibitors of RNA binding by human eIF4H; Q15056; eIF4H fluorescence polarization binding assay; inhibition, % at 35 µM; 0.94% of 290,000 active;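 active = 50% or more with normal probe brightness, or confirmed in later tests; inconclusive = above 50% with abnormal brightness, or retests that disagree; inactive = below 50% or failed in later tests; about a fifth of its hits are not listed in these tables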;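 also: calls also rest on retests at 20 µM and on dose response follow-up; 0% = protein and probe with vehicle and 100% = probe without protein; strong numbers were not always called active; many hits fall short of the cut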
MT1-MMP act inh: inhibitors of human MT1-MMP activation. P50281. AID 651647. GFP/RFP ratio change, % at 20 µM. HT1080 RFP-PRO-GFP cells, GFP/RFP ratio fluorescence, overnight; percent of plate control window, DMSO zero. 0.061% of 360,000 active;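 active = GFP/RFP ratio change of at least 30% with cell ATP level not reduced by more than half and red fluorescence within 50% of control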; also: strong numbers were not always called active
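Read-out: GFP/RFP fluorescence ratio; Test system: RFP-PRO-GFP reporter HT1080 cells; Compound dosing: single-point 20 µM compound, 1% DMSO; Times: overnight compound exposure at 37 °C.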
Rce1 inh: yeast Ras-converting enzyme inhibition | 0.27% of 290,000 active | Q03530 | calls only | yeast membranes, quenched prenylated peptide cleavage fluorescence;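 active = fall in fluorescence gain of 50% or more versus controls, with final raw signal at or below 3038400; inconclusive = same 50% fall but final raw signal above 3038400; inactive = fall in fluorescence gain under 50%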;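 also: plate controls were neutral control wells for no effect and wells lacking membranes for full effect; tested at 10 µM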
Target sequence (Q03530 whole entry, looked up): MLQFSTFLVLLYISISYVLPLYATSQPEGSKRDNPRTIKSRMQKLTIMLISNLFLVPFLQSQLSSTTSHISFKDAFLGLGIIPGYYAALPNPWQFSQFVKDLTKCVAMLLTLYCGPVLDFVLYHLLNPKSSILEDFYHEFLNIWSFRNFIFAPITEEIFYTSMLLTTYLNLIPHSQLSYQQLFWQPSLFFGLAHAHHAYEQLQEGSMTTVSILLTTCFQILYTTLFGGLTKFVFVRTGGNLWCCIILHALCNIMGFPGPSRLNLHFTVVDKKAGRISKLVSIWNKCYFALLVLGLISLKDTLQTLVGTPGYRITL
MT1-MMP act inh RFP: second read-out of MT1-MMP act inh, no call of its own (marks repeat the call); RFP signal change, %; measured here: RFP expression control read;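 0 = vehicle wells; hits needed this value within 50% of zero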
Active calls of the source: *; i = inactive; ? = inconclusive; nt = not tested or not shown; + = active, no number; & = joins results of further samples; ! = a repeat was not active. The list is partial. The share of hits here may be higher or lower than overall.

SMILES	CSC inhib	Env fusion inh	Yeast UUG start	PABP FP inh	eIF4H FP inh	MT1-MMP act inh	MT1-MMP act inh RFP	Rce1 inh
Cc1ccc(S(=O)(=O)N2CC(O)C[C@H]2C(=O)OCC(=O)Nc2ccc(N3CCOCC3)cc2)cc1C (stereo partly drawn)	nt	-2	9	nt	nt	0	2	nt
CCN(CC)C(=O)CSc1nc2c(sc(=S)n2-c2ccccc2)c(=O)n1-c1ccc(OC)c(OC)c1	6	-7	-11	12	1	10	-11	i
COc1ccc(/C=C/C(=O)OCC(=O)c2cc(C)ccc2C)cc1	nt	2	1	nt	nt	0	-3	nt
CCCCOc1ccc(C2CC(=O)N(C)C2=O)cc1 (stereo not drawn)	-6	nt	6	-3	8	8	0	i
CCOc1ccccc1Nc1nc2ccccc2n2cnnc12	-5	-17	-31	2	5	3	3	i
Cn1c(=O)[nH]c(=O)c2c1nc(Sc1nc3ccccc3s1)n2Cc1ccccc1	nt	nt	1	0	5	-4	-6	i
O=C(Nc1c(C(=O)C2CC2)oc2ccccc12)c1ccc(Cl)cc1	4	nt	nt	3	-8	1	3	i
CCN(CC)C(=O)C1=C(C)N(Cc2ccc(F)cc2)C(=O)C(CC(=O)NC(c2ccccc2)c2ccccc2)C1 (stereo not drawn)	nt	34	25	nt	nt	-1	-4	nt
COc1cc2c(cc1OC)C(c1ccccc1F)OC(=O)C2 (stereo not drawn)	nt	7	nt	7	-12	2	4	i
COc1ccc(NC(=O)N2CCN(c3cccc(C(F)(F)F)c3)CC2)cc1	7	40	-6	-1	-8	2	-2	i
O/N=C/c1ccnc(SCc2ccc(Cl)cc2)n1	80*	-11	nt	1	12	2	-5	i
CCOc1ccc2ncc(C(=O)c3ccc(OC)cc3)c(N3CCN(CC)CC3)c2c1	-11	nt	-18	-8	-7	5	-2	i
CC(C)(C)OC(=O)NNC(=O)NC12CC3CC(CC(C3)C1)C2	nt	31	nt	0	-4	0	-1	i
Cc1cccc(NC(=S)N=Nc2c(O)[nH]c3ccccc23)c1	7	27	nt	-15	16	8	-9	i
Cc1ccc(-c2nnn(CC(=O)N(CC(=O)NC3CCCCC3)c3ccccc3F)n2)o1	nt	3	-17	6	5	1	2	i
O=C1Nc2ccccc2CN2C(=O)c3cc(Cl)ccc3NC(=O)C12 (stereo not drawn)	nt	-2	-30	nt	nt	2	1	nt
COCCC(=O)N1CCc2ccc(NC(=O)c3ccc(C(F)(F)F)cc3)cc2C1	-1	2	-8	5	-12	-7	-28	i
CC(C)C(C(=O)N1CCOCC1)N1C(=O)c2ccccc2C1=O (stereo not drawn)	0	nt	-19	-6	-1	1	2	i
Cc1ccc2c(CN3CCN(Cc4ccc5c(c4)OCO5)CC3)cc(=O)oc2c1C	61	nt	-6&1	-4	5	-3	0	+!
CCc1nnc(NC(=O)CSc2nc(-c3ccccc3)c(-c3ccccc3)o2)s1	48	-7	nt	7	6	-10	-15	i
CC(C)CN(C(=O)COC(=O)c1ccc2c(c1)OCO2)c1c(N)n(Cc2ccccc2)c(=O)[nH]c1=O	1	i	-2	nt	nt	-5	-3	nt
O=S(=O)(NC(=NCc1ccccc1)c1ccc(F)cc1)c1ccc(Cl)cc1	-17	-52	-10	0	0	3	1	i
O=C(Nc1cccc2c1CCCC2)c1ccc(Cl)c([N+](=O)[O-])c1	-2	-17	nt	-3	-6	4	2	i
O=c1[nH]c2cc(S(=O)(=O)CCO)ccc2o1	8	-4	-7	1	17	2	3	i
CCOC(=O)CSc1nnc(CNC(=O)c2cccs2)n1-c1ccccc1	2	0	-12	2	-5	9	4	i
Next structures
SMILES	CSC inhib	Env fusion inh	Yeast UUG start	PABP FP inh	eIF4H FP inh	MT1-MMP act inh	MT1-MMP act inh RFP	Rce1 inh
O=C(Nc1nccs1)C1CC2CCC1C2 (stereo not drawn)	-14	-24	nt	0	-5	-4	-3	i
Cc1cc(C)c2oc(=O)cc(CN3CCN(Cc4ccc5c(c4)OCO5)CC3)c2c1	nt	nt	-16	3	4	-2	6	nt
COc1ccccc1C(C#N)N1N=C(C)CC1(C)C (stereo not drawn)	-5	15	nt	-7	3	1	6	i
CCCn1c(SCC(=O)c2cc(OC)ccc2OC)nnc1-c1ccco1	2	nt	-5	8	0	-2	1	i
Cn1nnnc1SCC(=O)N1c2ccccc2CCc2ccccc21	-6	4	-18	2	4	-5	1	i
COc1cccc(C(=O)NCCSc2ccc(F)cc2)c1	-15	-20	nt	-9	-3	-1	1	i
COC(=O)c1cc(CSc2nc3ccccc3c(=O)n2C)oc1C	-10	48	-17	2	4	-5	-25	i
CCC(C)c1c(O)nc(SCC(=O)N2CCCCC2)[nH]c1=O (stereo not drawn)	-4	1	nt	11	3	2	2	i
CC(=O)N1CCC(N2CCN(c3ccccc3F)CC2)CC1	34	-19	-13	9	5	-1	0	i
CN1CCN(S(=O)(=O)c2ccc(NC(=S)NC(=O)C3CC3)cc2)CC1	-45	nt	nt	-5	-6	1	3	i
CN(C)C(CNC(=O)c1ccco1)c1cccs1 (stereo not drawn)	-18	-13	-9	nt	nt	-3	4	i
Oc1[nH]c2ccccc2c1N=Nc1cccc(Cl)c1	3	-32	-5	?	?	0	4	i
CN(CC(=O)NCC1CCCCC1)CC(=O)Nc1ccc(F)cc1	nt	i	-15	nt	nt	-1	-2	nt
CCOC(=O)N1CCC(NC(=O)C2CCCN(C(=O)c3cc4sccc4n3C)C2)CC1 (stereo not drawn)	-11	-5	0	-10	-11	-1	-5	i
Cc1sc(NC(=O)c2ccc(F)cc2)c(CN2CCCCCC2)c1C	-9	nt	-8	-3	29	-28	2	i
CCc1nnc(NC(=O)c2cccnc2SC)s1	3	-8	nt	2	-7	-2	1	i
CC(C)CN1C(=O)/C(=C/c2cccs2)NC1=S	-11	11	3	-11	-3	3	3	i
CN1/C(=C\C(=O)Nc2cccnc2)c2ccccc2CC1(C)C	-13	-5	-13	-2	17	-5	3	i
OC1CCN(Cc2cccc(Oc3ccccc3)c2)CC1	-13	0	-17	-7	10	5	5	i
CNC(=O)[C@@H]1C[C@H]1[C@@H](NC(=O)OCc1ccccc1)c1ccccc1	10	-29	14	-6	-8	9	4	i
O=C1c2ccccc2C(=O)N1CCSC(=S)N1CCOCC1	-18	nt	-19	-5	-3	5	-1	i
CCOC(=O)C(Sc1cc(C)nc(N)n1)C(C)=O (stereo not drawn)	-15	-31	-25	3	3	-3	6	i
CCN1C2=C(C(=O)CCC2)C(c2ccc(O)cc2)C2=C1CCCC2=O	-8	-45	-9	20	6	1	8	i
O=C1C2C3CCC(C3)C2C(=O)N1c1ccc2ccccc2c1 (stereo not drawn)	-13	7	2	22	-4	-10	0	i
CCCC(C(=O)NC(C)(C)C)N(CC1CCCO1)C(=O)c1snc(C(N)=O)c1N (stereo not drawn)	-4	14	nt	44	-3	3	9	i
Additional structures follow.
SMILES	CSC inhib	Env fusion inh	Yeast UUG start	PABP FP inh	eIF4H FP inh	MT1-MMP act inh	MT1-MMP act inh RFP	Rce1 inh
O=C(O)CCSc1nnc(COc2cccc3cccnc23)n1-c1ccccc1	-17	25	nt	-3	-8	-2	3	i
CSc1ccc(CNC(C)(C)CO)cc1	13	5	-18	6	-2	1	1	i
Cc1cc(NC(=O)CSCC(=O)Nc2ccc(Cl)c(C(F)(F)F)c2)no1	-7	34	23	nt	nt	2	1	i
COC(=O)[C@@H]1CCCN1C(=O)CCc1nnc(C2CCCCC2)o1	-4	-1	-9	1	5	-1	5	i
c1ccc(C(c2ccccc2)N2CCN(Cc3nnnn3C3CCCCC3)CC2)cc1	-8	-36	6	3	19	-10	-5	i
COc1cc2cc(C(c3nnnn3C3CCCC3)N(C)C3CCCCC3)c(=O)[nH]c2cc1OC (stereo not drawn)	25	1	-3	-7	-13	-10	-9	i
O=C(OCC(=O)N1CCN(c2ccccc2)CC1)c1cc(F)c(F)cc1Cl	nt	-7	-9	nt	nt	-4	4	nt
COc1ccc(NC(=O)c2ccc3nccnc3c2)cc1	-14	nt	nt	3	5	-1	0	i
COc1ccc(Cl)c(N2CCN(CCCNC(=O)Nc3ccc(C)cc3)CC2)c1	15	nt	-1	-6	-1	-5	-4	i
CCCCCNc1c(C(=O)OCC)c(=O)[nH]c2ccccc12	2	-2	7	-2	-2	1	-8	i
CCN(CC)CCCNC(=O)C1CCN(C(=O)c2cc3sccc3n2Cc2ccc(F)cc2)CC1	37	nt	-9	-3	-3	2	5	i
CN(Cc1ccccc1F)C(=O)CN1CCN(S(=O)(=O)c2ccc3c(c2)OCCCO3)CC1	5	nt	-36	nt	nt	3	-5	nt
Cc1ccc(S(=O)(=O)N2C[C@]3(O)C[C@@H]4C(=O)N(c5ccccc5)C(=O)[C@@H]4C[C@]3(OC(=O)NC3CC3)C2)cc1	nt	-6	-10	nt	nt	-1	2	nt
O=C(CSc1nnnn1-c1ccccc1)Nc1ncc(Cc2ccccc2Cl)s1	-5	-2	nt	-4	4	0	1	i
CCC1(C)Cc2c(sc3nnn(CC(=O)Nc4ccc(Cl)cc4)c(=O)c23)CO1 (stereo not drawn)	nt	7	-16	-2	0	0	-7	i
CC1=C(C(=O)OCC2CCCCC2)C(c2ccc(F)cc2)NC(=O)N1 (stereo not drawn)	3	12	0	0	-11	-1	-10	i
C=CCC(C(=O)OC)(C(=O)OC)c1ccc([N+](=O)[O-])cc1[N+](=O)[O-]	-11	-5	nt	-3	-11	6	7	nt
N#Cc1cccc(NC(=O)CSc2ccccc2)c1	-9	10	-1	2	-5	3	3	i
COC(=O)c1ccc(NC(=O)Nc2cccc(F)c2)cc1	44	-109	-12	-4	-6	-4	-10	i
Cc1nc2ccc(NC(=O)CCS(=O)(=O)c3ccc(Cl)cc3)cc2s1	0	23	nt	6	2	1	-3	i
CC(C)(C)S(=O)(=O)c1cnc2c(-c3ccsc3)cnn2c1N	-11	8	nt	6	6	4	1	i
S=C(NCCc1ccccc1)N/N=C/c1ccccc1Cl	9	14	nt	6	-3	3	5	i
CCCCc1oc2c(c(=O)c1C)C(=O)CC(c1ccccc1)C2 (stereo not drawn)	6	23	-11	4	0	7	4	i
CC(=O)c1cccc(-c2ccnc3c2CC(C(=O)NCC2CC2)O3)c1 (stereo not drawn)	nt	8	-11	nt	nt	-1	-1	nt
O=C1Nc2cc(C(=O)NCCN3CCCCCC3)ccc2S/C1=C/c1ccccc1F	nt	-39	-16	nt	nt	-2	-1	nt
Other records
SMILES	CSC inhib	Env fusion inh	Yeast UUG start	PABP FP inh	eIF4H FP inh	MT1-MMP act inh	MT1-MMP act inh RFP	Rce1 inh
CCc1ccc(-c2nc(SCC(=O)NC3CC3)n[nH]2)cc1	-5	nt	-11	nt	nt	1	-1	nt
Cc1ccc(S(=O)(=O)Cc2ccc(C(=O)NCc3cccs3)o2)cc1	-5	-8	nt	-5	-6	-7	-4	i
CCc1ccc(CN(C)Cc2nc(COc3ccccc3)no2)nc1	2	6	nt	-7	-3	-1	3	i
CCCNC(=O)C1(C)CCCN(C(=O)c2cccc(OC(C)=O)c2C)C1 (stereo not drawn)	nt	-109	-13	nt	nt	1	8	nt
Nc1ccccc1C(=O)NNC1=C(C(=O)C(F)(F)F)CCC1	19	7	-9	-5	5	8	6	nt
Cn1c(O)c(N=NC(=O)c2cc(-c3cccs3)nc3ccccc23)c2ccccc21	nt	-93	0	0	7	20	-1	i
COc1ccc(C2NC(=O)NC(C)=C2C(=O)OC2CCCC(C)C2)cc1 (stereo not drawn)	-2	27	-5	2	-6	-3	-5	i

Limited to eIF4H FP inh, for 2 of the compounds above:
Structure | eIF4H FP inh
CC(C)C(C(=O)N1CCOCC1)N1C(=O)c2ccccc2C1=O (stereo not drawn) | -1
Cc1ccc2c(CN3CCN(Cc4ccc5c(c4)OCO5)CC3)cc(=O)oc2c1C | 5
